Ecoli growth: E. coli growth inhibition, primary screen, OD600. Escherichia coli growth, 23 h; hits give low values. OD600 absorbance (test concentration not listed). 330,000 tested, 0.21% active;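 active = OD600 absorbance below the run mean of sample wells minus 3.6 SD, in any replicate, cut at about 0.56 in these data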;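 also: stock transfer was 300 nL into about 60 µL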
HNF4A DNA FP: change in binding of human HNF4A to DNA, primary screen, biochemical, fluorescence polarization, FITC-DNA; Hepatocyte nuclear factor 4-alpha (Homo sapiens), P41235; 1 h; activity change, % at 10 µM; 360,000 tested, 0.3% active; in the data active = activity change above about 30%, passing the limit was not always enough;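 also: controls were the assay level and a saturating level of protein; the project sought stronger binding though the title names inhibitors; some compounds called inactive have numbers as strong as hits; positive values seem to mean higher polarization but the record does not say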
Vif TR-FRET: inhibitors of Vif binding to APOBEC3G peptide, primary screen, biochemical, TR-FRET, GST-Vif 1-94, biotin-A3G peptide, dose response retest (AID 1117319) | TR-FRET GST-Vif / biotin-A3G peptide binding; higher % means a stronger effect; test concentration not given here; strong numbers were not always called active | inhibition, %, or IC50 in µM where a hit was titrated | 260,000 tested, 0.57% active;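 active = above the screen mean plus three standard deviations and confirmed in dose response; inconclusive = results disagree or hit not tested in dose response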;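 also: Vif residues 1-94 fused to GST binding biotinylated APOBEC3G peptide 110-148; 0% = full assay without inhibitor and 100% = GST in place of GST-Vif; retest series ran down from 100 µM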
B2AR ag: beta2AR agonists driving receptor internalization, primary screen, cell-based, FAP fluorogen, flow cytometry; Am2.2-beta2AR cells; reference of the scale not given here; response, % (no concentration beside the values); AID 504454, 2011; 340,000 tested, 0.43% active; Beta-2 adrenergic receptor (Homo sapiens), P07550;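 active = response above a set limit, near 3 SD of response in nonfluorescent compounds, cut at about 42% in these data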;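 also: stock transfer was 100 nL into about 11 µL; a reference agonist was the positive control; negative values mostly stem from fluorescent compounds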
Target sequence (P07550 whole entry, looked up): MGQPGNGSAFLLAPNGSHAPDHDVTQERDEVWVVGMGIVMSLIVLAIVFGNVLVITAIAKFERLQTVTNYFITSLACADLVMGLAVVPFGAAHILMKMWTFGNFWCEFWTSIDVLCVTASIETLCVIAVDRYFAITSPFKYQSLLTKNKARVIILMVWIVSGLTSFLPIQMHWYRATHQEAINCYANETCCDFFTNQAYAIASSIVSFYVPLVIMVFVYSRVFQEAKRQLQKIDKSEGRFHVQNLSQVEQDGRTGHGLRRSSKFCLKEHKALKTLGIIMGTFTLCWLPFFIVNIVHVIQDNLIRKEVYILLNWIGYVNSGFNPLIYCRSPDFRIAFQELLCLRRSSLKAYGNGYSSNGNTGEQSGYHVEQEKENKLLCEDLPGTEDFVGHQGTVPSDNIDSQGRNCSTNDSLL
UCH37 inh: inhibitors of human UCH37 deubiquitinase, primary screen, biochemical, Ub-AMC cleavage, fluorescence; purified proteasome/UCH37; inhibition, % (concentration not given with the values); 330,000 tested, 0.33% active; AID 588478, 2011;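 active = mean of two replicates above 20%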;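 also: 0% = compound-free wells with enzyme and 100% = wells lacking proteasome; stock transfer was 100 nL into about 20 µL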
Target sequence (Q9Y5K5 whole entry, looked up): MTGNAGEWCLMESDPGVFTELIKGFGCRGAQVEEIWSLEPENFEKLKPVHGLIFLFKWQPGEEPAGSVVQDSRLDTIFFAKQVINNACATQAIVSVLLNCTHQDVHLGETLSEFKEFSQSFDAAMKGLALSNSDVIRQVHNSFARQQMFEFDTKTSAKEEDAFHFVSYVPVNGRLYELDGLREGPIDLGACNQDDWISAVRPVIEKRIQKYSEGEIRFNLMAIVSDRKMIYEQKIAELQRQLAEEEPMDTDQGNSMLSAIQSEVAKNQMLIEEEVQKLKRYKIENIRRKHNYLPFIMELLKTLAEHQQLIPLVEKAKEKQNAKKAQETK
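System: Proteasome-associated human UCH37 deubiquitinase; Input: 0.15 nM proteasome in added enzyme buffer; Also added: Ub-AMC substrate from 1 µM stock; Incubation: 30 min compound-proteasome preincubation then 25 min substrate reaction, room temperature; Detection: fluorescence, ex 355 nm, em 460 nm; Read-out: % inhibition of Ub-AMC cleavage fluorescence; Benchmarks: no-proteasome and no-compound wells.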
LANA-H2A inh: blockers of LANA interaction with H2A/H2B – biochemical, FP readout, HTS, primary screen | Protein LANA1 (Human herpesvirus 8 type P (isolate GK18)), Q9QR71 | cell-free LANA-H2A/H2B peptide, fluorescence polarization | inhibition, % (concentration not given with the values) | 320,000 tested, 0.6% active; in the data active = inhibition mostly above about 10%, no sharp cut-off; inactive = mostly below about 6.7%;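 also: stock transfer was 7.5 nL into about 10 µL; 0% = median of vehicle wells and 100% = median of positive control wells; one replicate is shown; the record names a cut of 25% in any replicate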
Bfl-1 A1 inh: caspase 3/7 activation in MEF A1-2A-BIM cells, primary screen, A1 inhibitor project, cell-based, luminescence, HTS | 330,000 tested, 0.066% active | Caspase-Glo 3/7 luminescence, 3 h; percent of clofoctol response, vehicle zero | caspase activation, % (test concentration not listed);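 active = over half of replicate activation scores above 10%, or exactly half above 10 with the replicate mean above 10; inconclusive = replicate mean below 10 yet half the replicates above 10; inactive = over half of replicates below 10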;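 also: wells of about 30 µL received 50 nL stock; many hits fall short of the cut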
* = called active by the depositor; i = inactive; u = inconclusive; x = not tested or not shown. Not a hit list; 2.1% or so of the library scored in one or more.

The first 5 compounds (preview)
SMILES	Ecoli growth	HNF4A DNA FP	Vif TR-FRET	B2AR ag	UCH37 inh	LANA-H2A inh	Bfl-1 A1 inh
CCCn1c(CC)nc([N+](=O)[O-])c1S(=O)(=O)c1ccccc1	0.71	-1.3	14%	37	1.3	-1.9	2.0
CCCCOP(=O)(OCCCC)C(Nc1ccccc1)c1ccc2c(c1)OCO2 (stereo unspecified)	0.67	1.6	-8%	7	2.1	-4.7	0.8
Cc1ccc2c(CN3CC(C)CC(C)C3)cc(=O)oc2c1 (stereo unspecified)	0.65	1.7	6%	2	3.2	7.0	1.2
CCOC(=O)C1(CC)NC(c2cccc(F)c2)C2C(=O)N(CC)C(=O)C21 (stereo unspecified)	0.66	-2.4	0%	0	1.8	-0.1	1.5
COc1cc(-c2[nH]ncc2CN2CCN(c3cccc(C)n3)CC2)cc(OC)c1OC	0.67	1.5	u	-2	0.2	1.9	-0.4

This part in full, repeating the preview:
SMILES	Ecoli growth	HNF4A DNA FP	Vif TR-FRET	B2AR ag	UCH37 inh	LANA-H2A inh	Bfl-1 A1 inh
CCCn1c(CC)nc([N+](=O)[O-])c1S(=O)(=O)c1ccccc1	0.71	-1.3	14%	37	1.3	-1.9	2.0
CCCCOP(=O)(OCCCC)C(Nc1ccccc1)c1ccc2c(c1)OCO2 (stereo unspecified)	0.67	1.6	-8%	7	2.1	-4.7	0.8
Cc1ccc2c(CN3CC(C)CC(C)C3)cc(=O)oc2c1 (stereo unspecified)	0.65	1.7	6%	2	3.2	7.0	1.2
CCOC(=O)C1(CC)NC(c2cccc(F)c2)C2C(=O)N(CC)C(=O)C21 (stereo unspecified)	0.66	-2.4	0%	0	1.8	-0.1	1.5
COc1cc(-c2[nH]ncc2CN2CCN(c3cccc(C)n3)CC2)cc(OC)c1OC	0.67	1.5	u	-2	0.2	1.9	-0.4
Cc1cccc(C)c1NC(=O)NC1CCc2ccccc21 (stereo unspecified)	0.7	2.5	-6%	-5	2.5	2.5	-0.4
COc1ccc(-c2nnc(Nc3ccc(OC)c(C(=O)N4CCCCC4)c3)c3ccccc23)cc1	0.69	-0.4	22%	12	-5.4	-2.1	0.6
CCn1ncc(-c2cc(C(=O)O)no2)c1C	0.69	x	12%	-5	-0.4	-8.7	1.2
COc1cccc(C(C#N)N2N=C(C)CC2(C)C)c1O (stereo unspecified)	0.65	0.2	-2%	2	5.6	2.7	0.5
CCOC(=O)C1CCN(C(=O)CC(C)c2ccccc2)CC1 (stereo unspecified)	0.71	-1.7	29%	9	0.0	0.1	-0.8
Cc1csc(C(C)NC(=O)c2ccc(OC3CCN(CCc4ccccc4)CC3)cc2)n1 (stereo unspecified)	0.62	1.5	x	6	2.4	2.5	0.6
O=C(CSc1nnc(C2COc3ccccc3O2)o1)N1CCCc2ccccc21 (stereo unspecified)	0.72	-5.5	-5%	17	6.7	4.0	-0.8
COc1ccc([N+](=O)[O-])cc1NC(=O)C(C)OC(=O)c1cccnc1 (stereo unspecified)	0.65	1.2	x	0	4.6	2.0	0.5
O=C(COC(=O)/C=C/c1ccccc1Cl)NCC1CCCO1 (stereo unspecified)	0.71	0.3	-6%	-3	0.3	1.8	-0.6
Cc1ccc(-c2nc(CN(CC3CCC3)CC3CCCO3)c(C)o2)s1 (stereo unspecified)	0.65	-3.5	x	-5	-11	-3.2	0.0
Cc1c2c(n3c(nc4ccccc43)c1C#N)N(CCN(C)C)CC2	0.69	2.0	27%	-22	i	2.3	-0.5
O=C(/C=C/c1ccccc1)NC(=S)NNC(=O)c1ccco1	0.75	-2.8	6%	-2	-0.3	-2.8	-0.4
CS(=O)(=O)N1CCC(Oc2ccccc2C(=O)NC2CCOC2)CC1 (stereo unspecified)	0.65	9.2	x	6	-0.2	-1.0	-0.2
COc1ccc(OC)c(C2C3=C(CCCC3=O)Nc3nnnn32)c1 (stereo unspecified)	0.73	-1.6	-2%	7	1.9	2.1	-0.1
Cc1cc(C(=O)OCC(=O)Nc2ccc(F)cc2[N+](=O)[O-])c2ccccc2n1	0.73	1.6	x	4	7.2	2.6	-0.5
Cc1cc(NC(=O)CN2C(=O)C3CC=CCC3C2=O)no1 (stereo unspecified)	0.66	-2.0	22%	8	0.5	1.2	-0.3
CN1CCN(CC(O)COc2ccc(C(=O)O)cc2)CC1 (stereo unspecified)	0.62	-1.3	-5%	8	5.9	1.8	0.2
COc1ccccc1C(CC(=O)Nc1ccc(C)c(C)c1)c1ccc(OC(C)C)cc1 (stereo unspecified)	0.72	-0.9	x	4	4.1	-1.4	0.5
Nn1c(SCC(=O)Nc2ccc3c(c2)OCO3)nncc1=O	0.71	3.2	-5%	2	8.0	3.4	0.8
COc1ccccc1NC(=O)c1ccc(NS(=O)(=O)c2cccc3cccnc23)cc1	0.68	0.1	x	4	2.9	x	-0.8
Cn1cc(CN2CCc3ccccc3C2)c2ccccc21	0.74	-0.2	-1%	1	1.5	3.3	1.8
CCOc1ccc(NC(=O)COC(=O)CSCC(=O)Nc2ccc(C)cc2C)cc1	0.67	-0.9	u	-3	0.5	2.2	-1.4
CCn1cnc2sc(C(=O)Oc3cccc(C)c3)c(C)c2c1=O	0.68	1.1	x	-5	-1.2	2.7	0.1
Cc1cccc(CC(=O)NCCN2CCOCC2)c1	0.68	-4.3	-9%	0	0.2	-2.2	0.3
FC(F)(F)C(F)(F)c1nnc2ccc(-n3ccnc3)nn12	0.72	-7.2	-3%	-2	1.7	-4.0	-0.2
CC(C)C(NC(=O)c1ccc(C(C)(C)C)cc1)C(=O)OCC(=O)NC(=O)Cc1ccccc1 (stereo unspecified)	0.73	0.2	x	-5	1.0	-1.8	0.5
COc1ccc2c(c1)nc(SCC(=O)c1cccs1)n2C	0.73	6.6	5%	-2	3.9	-4.7	-0.3
Clc1ccc(/C=C/c2ncc3ccccn23)cc1	0.71	16	22%	0	-87	-3.8	-6.2
CCC(C)NC(=O)[C@H]1N2C(=O)c3c(ccc(OC)c3OC)C2SC1(C)C (stereo partly specified)	0.64	2.0	8%	-6	-16	5.6	-0.6
NNC(=O)c1oc2ccccc2c1-n1cccc1	0.67	2.4	4%	-2	-1.1	3.8	-0.1
COc1ccc(-n2nc(C(=O)NCC(=O)NCCc3ccc(OC)c(OC)c3)c3ccccc3c2=O)cc1Cl	0.63	4.5	x	3	-2.8	3.5	1.9
CCNc1nc(NCC)n2c(SCc3ccc(F)cc3)nnc2n1	0.77	-1.1	-6%	10	4.0	0.9	1.8
Cc1cc(OC(C)C(=O)NCCN2CCOCC2)c2c(C)cc(=O)oc2c1 (stereo unspecified)	0.65	-1.6	x	5	-72	-0.4	-1.1
COCCN1C(=O)c2ccc(C(=O)NCc3cccnc3)cc2C1=O	0.69	0.5	4%	-8	5.0	-4.9	-0.1
O=C(c1nn2c(C(F)(F)F)cc(-c3ccccc3)nc2c1Cl)N1CCN2CCCC2C1 (stereo unspecified)	0.68	2.2	-4%	-4	-0.3	x	x
COc1ccc(-c2n[nH]c(=S)n2-c2ccccc2C)cc1OC	0.69	2.8	x	-1	-0.5	4.7	1.3
CC1(C)CC(=O)C(C2C3=C(CC(C)(C)CC3=O)OC3=C2C(=O)CC(C)(C)C3)=C(O)C1	0.65	3.9	x	1	4.5	0.8	-0.3
COc1ccc(CN(C(=O)/C=C/c2ccco2)C2CCS(=O)(=O)C2)cc1OC (stereo unspecified)	0.69	5.3	15%	3	2.6	-4.1	-1.5
Cc1ccc(C)c(C(=O)COC(=O)c2c(-c3ccccc3)noc2C)c1	0.69	1.1	0%	-3	-0.3	x	x
CCC(C)C(=O)Nc1ccc(S(=O)(=O)Nc2nccs2)cc1 (stereo unspecified)	0.7	1.4	x	5	2.2	1.5	-0.3
COCCCNC(=O)Cc1c(C)c2c(cc(C)c3c(C)c(C)oc32)oc1=O	0.66	-4.0	x	3	-215	x	x
Cc1cc(SCC(=O)NN)c2cc(Br)ccc2n1	0.6	2.8	27%	0	5.6	0.5	0.8
CC(C)(C)NC(=O)CN(C(=O)c1snc(C(=O)NC2CCCCC2)c1N)c1ccccc1F	0.72	-0.5	x	-5	-53	-5.0	0.8
CN1CCN(S(=O)(=O)c2cccc(C(=O)NCCOc3ccccc3)c2)CC1	0.69	1.6	5%	-3	0.9	2.7	-0.5
CSc1nc(N(C)C)nc(N(C)C#N)n1	0.7	-1.7	2%	-3	-0.9	0.3	0.3

Further records follow.
SMILES	Ecoli growth	HNF4A DNA FP	Vif TR-FRET	B2AR ag	UCH37 inh	LANA-H2A inh	Bfl-1 A1 inh
COc1ccc(CCN2C(=O)CSC2=S)cc1OC	0.64	8.4	x	1	2.2	1.8	-0.9
CCNc1nc(Oc2c(Cl)cccc2Cl)cc(C(F)(F)F)n1	0.72	1.3	-2%	0	1.8	-0.7	-1.2
Cc1nnc(SCC2=C(C(=O)O)N3C(=O)C(NC(=O)Cn4nc(C(F)F)c(Cl)c4C)C3SC2)s1 (stereo unspecified)	0.62	-6.0	x	11	2.7	-2.2	-0.3
Cc1cc(C)c(C)c(S(=O)(=O)NCc2ccco2)c1C	x	x	19%	x	x	3.8	0.3
COc1cccc2c(SCC(=O)N/N=C/c3ccc(O)cc3O)cc(C)nc12	x	-0.6	1%	1	x	x	x
NC(=O)Cn1c(=O)n(-c2ccccc2)c(=O)c2oc3ccccc3c21	0.65	-0.4	0%	0	5.0	4.4	0.7
CCOC(=O)[C@@H]1CCNC[C@@H]1c1ccccc1	0.76	-1.3	8%	-2	4.5	0.2	-2.0
O=C(O)CCCC(=O)Nc1cccc(C(=O)Nc2ccccc2C(=O)O)c1	0.71	-1.6	-14%	1	3.4	1.8	0.9
CCc1ccc(NC(=O)Cn2c(=O)c3cccn3c3ccccc32)cc1	0.67	3.5	x	2	-2.5	-1.9	-0.1
Cc1nn(CC(C)C)c(Cl)c1C(=O)N(C)CC(=O)Nc1c(Cl)cccc1Cl	0.7	-0.6	6%	-8	1.5	-0.7	0.5
c1ccc(Cn2ccnc2SCc2nnc(-c3ccccc3)o2)cc1	0.71	2.0	6%	-11	4.4	3.3	-0.5
O=C1Nc2cc(C(=O)N3CCC(N4CCCCC4)CC3)ccc2S/C1=C\c1ccccc1	0.69	3.9	x	18	3.7	0.1	-0.2
C/C(=N\NC(=S)Nc1ccccc1)C1Cc2ccccc2C(=O)O1 (stereo unspecified)	x	-0.8	-6%	-1	x	8.3	-0.4
O=C(CCNC(=O)c1ccccc1)Oc1ccc([N+](=O)[O-])cc1	0.69	-1.1	-5%	6	7.7	-2.3	0.8
Brc1cccc(-c2n[nH]c(-c3ccccc3)n2)c1	0.66	-2.7	-6%	-2	5.8	17*	0.1
COc1ccccc1C(=O)NC(CCSC)C(=O)OC(C)C(N)=O (stereo unspecified)	0.68	-5.8	2%	-8	0.2	2.2	0.9
CC#CCN1c2ccccc2[C@]23C[C@@H](C(=O)OC)N=C2NC(C(=O)OC)=C(C(=O)OC)[C@H]13	x	-0.7	1%	-5	2.0	2.0	1.0
Cc1cc(C)cc(OCC(=O)OCC(=O)c2ccc3c(c2)NC(=O)CO3)c1	0.74	3.1	-4%	2	1.9	-0.5	-0.4
COc1ccc(CC(NC(C)=O)C(=O)NC2CCN(C(=O)C3CCCCC3)CC2)cc1OC (stereo unspecified)	x	6.0	-7%	4	x	4.8	0.1
Cc1onc(C(=O)Nc2ccc(OC(F)(F)F)cc2)c1[N+](=O)[O-]	0.68	-2.7	-4%	-7	1.5	-1.4	0.2

High-throughput results (PubChem)
